Bioassay records (PubChem BioAssay)
NOMO-1 viab: NOMO-1 AML cell viability reduction, primary screen, STK33 inhibitor project, CellTiter-Glo luminescence; NOMO-1 AML viability, 72 h; AID 2330, 2010; actives 7.5% (n = 37,000); inhibition, % (no concentration beside the values);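 active = most replicates above 80%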;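 also: wells of about 30 µL received 25 nL stock; 0% = median of vehicle wells and 100% = reference inhibitor level; the first replicate is given; inactives centre near 10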
* hit, by the source's call. Only part of the results is shown; rates above refer to the full screens.

SMILES	NOMO-1 viab
COc1ccc(S(=O)(=O)Nc2ccc3c(c2)C(=O)N([C@H](C)CO)C[C@H](C)[C@H](CN(C)S(=O)(=O)c2ccc(C)cc2)OCCCC[C@@H](C)O3)cc1	60.3
COc1ccc(CN(C)C[C@H]2Oc3ccc(NS(=O)(=O)c4cccs4)cc3C(=O)N([C@H](C)CO)C[C@H]2C)cc1	4.0
COc1ccccc1NC(=O)/C=C\c1ccco1	107.2*
CN(C)c1nc(N)nc(CSc2nnnn2C)n1	12.9
COc1ccc(NC(=O)N(C)C[C@H]2OCCCC[C@@H](C)Oc3ccc(NC(=O)c4ccncc4)cc3C(=O)N([C@H](C)CO)C[C@@H]2C)cc1	-2.7
Cc1cc(Br)c(S(=O)(=O)NCc2ccccn2)cc1C	5.0
C[C@@H]1CCCCO[C@@H](CN(C)C(=O)Nc2ccc(F)cc2)[C@@H](C)CN([C@H](C)CO)C(=O)c2cc(NC(=O)Nc3ccc(C(F)(F)F)cc3)ccc2O1	61.7
C=CCn1c(C(CC)CC(C)(C)O)n[nH]c1=S (stereo unspecified)	-0.3
Cc1noc(C)c1NC(=O)N(C)C[C@H]1Oc2ccc(NS(=O)(=O)c3ccccc3)cc2C(=O)N([C@H](C)CO)C[C@@H]1C	-11.1
Cc1cc(C)c2oc(-c3cccc(NC(=O)COc4ccc(Br)cc4)c3C)nc2c1	-2.9
COC(=O)C(C)Sc1nnc(-c2ccc(Br)cc2)o1 (stereo unspecified)	39.9
COc1ccc(-c2nnc(SCC(=O)Nc3cc(Cl)c(Cl)cc3Cl)n2C)cc1	8.1
CN(CC(N)=O)S(=O)(=O)c1ccc2ccccc2c1	12.7
COc1cc(C(=O)Nc2ccc(OCC(=O)O)cc2)ccc1OC(C)=O	23.2
COc1ccc(S(=O)(=O)Nc2cccc3c2O[C@H](CN(C)CC2CC2)[C@@H](C)CN([C@H](C)CO)C3=O)cc1	-4.0
O=C(COC(=O)c1ccc(N2C(=O)c3ccccc3C2=O)cc1)c1ccccc1	19.4
C[C@H](CO)N1C[C@H](C)[C@@H](CN(C)S(=O)(=O)c2cn(C)cn2)Oc2ccc(NC(=O)c3ccncc3)cc2C1=O	-1.5
Cc1cc(-c2ccccc2)nc(SCC(=O)Nc2ccccc2C#N)n1	3.9
Cc1noc(C)c1NC(=O)Nc1cccc2c1O[C@H](CN(C)C(=O)Nc1cccc3ccccc13)[C@@H](C)CN([C@@H](C)CO)C2=O	37.6
C[C@H](CO)N1C[C@H](C)[C@H](CN(C)Cc2ccc(C(=O)Nc3ccccc3N)cc2)Oc2ccc(NS(=O)(=O)c3cn(C)cn3)cc2CC1=O	39.8
Cc1ccc(S(=O)(=O)N(C)C[C@@H]2Oc3ccc(NS(=O)(=O)c4ccccc4)cc3CC(=O)N([C@H](C)CO)C[C@@H]2C)cc1	2.2
CN(C)/C=C/C(=O)c1ccc2c(c1)CCO2	109.6*
COc1ccc(N(CN2C(=O)c3ccccc3C2=O)C(=O)c2ccccc2)cc1	31.8
Cc1ccc(NC(=O)CSc2nnc(-c3ccccc3)n2-c2ccccc2)c(Br)c1	12.8
COc1ccc2ccc(=O)oc2c1C(OC(C)=O)C(=O)C(C)C (stereo unspecified)	12.9

More results.
SMILES	NOMO-1 viab
C[C@H]1CN([C@@H](C)CO)C(=O)Cc2cc(NS(=O)(=O)c3cn(C)cn3)ccc2O[C@@H]1CN(C)Cc1ccc(Cl)c(Cl)c1	0.6
C[C@H]1CN([C@@H](C)CO)C(=O)c2cccc(NC(=O)c3ccncc3)c2O[C@H]1CN(C)C(=O)NC1CCCCC1	32.9
COc1ccc(-n2c(SCC(=O)c3cccc([N+](=O)[O-])c3)nnc2-c2ccc(Cl)cc2)cc1	8.1
C[C@@H]1CN([C@H](C)CO)C(=O)Cc2cc(NC(=O)Nc3ccc(F)cc3)ccc2O[C@H]1CN(C)Cc1ccc(C(=O)Nc2ccccc2N)cc1	15.3
CC(=O)c1ccc(NC(=O)CN(C)S(=O)(=O)c2ccccc2)cc1	-12.3
COc1ccc(S(=O)(=O)N(C)C[C@@H]2Oc3c(NS(=O)(=O)c4ccc(F)cc4)cccc3C(=O)N([C@@H](C)CO)C[C@@H]2C)cc1	2.5
OC(CSc1nc2ccccc2s1)Cn1c2ccccc2c2ccccc21 (stereo unspecified)	22.7
C[C@H]1CN([C@@H](C)CO)C(=O)c2cc(NC(=O)C3CCCCC3)ccc2O[C@@H]1CN(C)C(=O)Nc1cccc2ccccc12	2.1
O=C(CCCC(=O)Nc1cc(C(F)(F)F)ccc1Cl)Nc1cc(C(F)(F)F)ccc1Cl	15.8
CN1CCC(N(C)Cc2ccc(-c3ccccc3[N+](=O)[O-])o2)CC1	7.4
COc1ccc(S(=O)(=O)NCc2ccccn2)cc1I	-10.0
C[C@@H]1CN([C@@H](C)CO)C(=O)c2cc(NC(=O)C3CC3)ccc2O[C@@H]1CN(C)CC1CC1	1.7
CCn1c(SCC(=O)Nc2ccc(C)cc2Br)nnc1-c1ccc(Cl)cc1	10.7
Cc1sc2c(c1C)CN(C(C)(C)C)CN2C(=O)c1ccccc1	20.0
FC(F)(F)c1ccc(Oc2ccc(Oc3ccc(C(F)(F)F)cn3)cc2)nc1	3.7
COc1ccc(S(=O)(=O)N(C)C[C@@H]2Oc3c(NC(=O)Nc4ccccc4)cccc3C(=O)N([C@H](C)CO)C[C@H]2C)cc1	18.3
O=c1oc2ccccc2cc1-c1csc(Cc2nc3c(s2)CCCC3)n1	21.7
C[C@H]1CN([C@@H](C)CO)C(=O)Cc2cc(NC(=O)Cn3cnnn3)ccc2O[C@H]1CN(C)S(=O)(=O)c1ccc(Cl)cc1	24.6
Cc1cccc(-n2c(SCC(=O)Nc3ccccc3)nnc2-c2ccccc2)c1	-9.4
C[C@H]1CN([C@@H](C)CO)C(=O)c2cc(NC(=O)CCN3CCOCC3)ccc2O[C@@H]1CN(C)S(=O)(=O)c1cccs1	-4.6
CC(C)NC(=O)Nc1ccc2c(c1)C(=O)N([C@H](C)CO)C[C@H](C)[C@H](CN(C)Cc1ccc3c(c1)OCO3)OCCCC[C@@H](C)O2	-0.4
CCOC(=O)c1nnn2c1nc(SCC(N)=O)c1ccccc12	-6.7
COc1ccc(NC(=O)CSc2nc(C)cc(=O)[nH]2)c(OC)c1	-0.4
C[C@H](CO)N1C[C@H](C)[C@@H](CN(C)Cc2ccc(Cl)c(Cl)c2)Oc2ccc(NS(=O)(=O)c3cn(C)cn3)cc2C1=O	-3.1
COC(=O)CNC(=O)c1ccc(S(=O)(=O)N2CCOCC2)cc1	34.5

Next entries follow:
SMILES	NOMO-1 viab
COc1ccc(CN(C)C[C@@H]2Oc3ccc(NS(=O)(=O)c4c(C)noc4C)cc3C(=O)N([C@@H](C)CO)C[C@@H]2C)cc1	51.4
C[C@@H]1CN([C@H](C)CO)C(=O)Cc2cc(NS(=O)(=O)c3ccccc3)ccc2O[C@@H]1CN(C)Cc1ccncc1	1.7
COc1ccc(C(=O)CSc2nc(C)cc(=O)[nH]2)cc1[N+](=O)[O-]	6.3
O=C(NCc1ccccn1)c1cnn2c(C(F)(F)F)cc(-c3cccs3)nc12	23.3
CCOC(=O)c1cnc2c(S(=O)(=O)C(C)C)csc2c1Sc1ccc(Cl)cc1	65.8
COc1ccccc1OC(C)C(=O)Nc1c(C)n(C)n(-c2ccccc2)c1=O (stereo unspecified)	-3.3
COc1ccc(CCCOC(Cn2ccnc2)c2ccc(OC)cc2)cc1 (stereo unspecified)	114.5*
C[C@H](CO)N1C[C@H](C)[C@H](CN(C)Cc2ccc3c(c2)OCO3)Oc2ccc(NS(=O)(=O)c3cn(C)cn3)cc2CC1=O	-8.5
CC(C)NC(=O)Nc1ccc2c(c1)CC(=O)N([C@@H](C)CO)C[C@H](C)[C@H](CN(C)Cc1ccc(C(=O)O)cc1)O2	-23.4
Cc1noc(C)c1S(=O)(=O)Nc1ccc2c(c1)C(=O)N([C@@H](C)CO)C[C@H](C)[C@@H](CN(C)Cc1ccc(C(=O)Nc3ccccc3N)cc1)O2	8.2
Cc1ccc(S(=O)(=O)Nc2ccc3c(c2)C(=O)N([C@H](C)CO)C[C@@H](C)[C@H](CN(C)C)O3)cc1	19.0
C[C@@H]1CN([C@H](C)CO)C(=O)c2cccc(NS(=O)(=O)c3cccs3)c2O[C@@H]1CN(C)S(=O)(=O)c1ccc(Cl)cc1	51.3
CC(OC(=O)c1cccc(O)c1)C(=O)O (stereo unspecified)	-6.7
Cc1ccc(N(C(C)C(=O)Nc2cc([N+](=O)[O-])ccc2C)S(C)(=O)=O)cc1 (stereo unspecified)	11.2
C[C@@H]1CN([C@@H](C)CO)C(=O)Cc2cc(NS(=O)(=O)c3cn(C)cn3)ccc2O[C@@H]1CN(C)C(=O)NC1CCCCC1	-4.5
Cc1noc(C)c1NC(=O)N(C)C[C@@H]1Oc2c(NC(=O)NC3CCCCC3)cccc2C(=O)N([C@@H](C)CO)C[C@@H]1C	0.7
NC(=O)COc1c(-c2ccccc2)oc2ccccc2c1=O	-6.0
NC(=O)c1c(NC(=O)c2cnn3c(C(F)F)cc(-c4ccccc4)nc23)sc2c1CCC2	29.3
COc1ccc(NC(=O)C(C)N2c3cccc4cccc(c34)S2(=O)=O)cc1OC (stereo unspecified)	45.6
CC(C)NC(=O)Nc1ccc2c(c1)C(=O)N([C@@H](C)CO)C[C@H](C)[C@@H](CN(C)S(=O)(=O)c1ccc(Cl)cc1)O2	0.2
COC(=O)c1ccc(-n2c(CCC(=O)O)ccc2-c2ccc(Br)cc2)cc1	19.3
C[C@@H]1CN([C@H](C)CO)C(=O)Cc2cc(NS(=O)(=O)c3cn(C)cn3)ccc2O[C@@H]1CN(C)Cc1ccccc1	3.3
CCN(CC(=O)Nc1ccc(Cl)cc1C)S(=O)(=O)c1ccc(C)cc1	-14.7
O=C(CSc1nnc2c(n1)[nH]c1ccccc12)NCc1ccccc1	-1.1
C[C@@H]1CCCCO[C@H](CN(C)C(=O)C2CCCCC2)[C@@H](C)CN([C@H](C)CO)C(=O)c2cc(NC(=O)c3ccccc3)ccc2O1	21.4

The results go on:
SMILES	NOMO-1 viab
C[C@H](CO)N1C[C@H](C)[C@@H](CN(C)Cc2ccncc2)Oc2ccc(NS(=O)(=O)c3ccc(F)cc3)cc2C1=O	18.7
C[C@@H]1CN([C@@H](C)CO)C(=O)c2cccc(NC(=O)Nc3ccccc3)c2O[C@H]1CN(C)Cc1ccc(C(F)(F)F)cc1	87.8*
COc1ccc(NC(=O)N(C)C[C@H]2Oc3ccc(NS(=O)(=O)c4ccc(OC)cc4)cc3CC(=O)N([C@H](C)CO)C[C@H]2C)cc1	13.1
C[C@H]1CN([C@@H](C)CO)C(=O)Cc2cc(NC(=O)NC3CCCCC3)ccc2O[C@@H]1CN(C)Cc1ccncc1	17.6
COc1ccc(S(=O)(=O)Nc2ccc3c(c2)CC(=O)N([C@@H](C)CO)C[C@H](C)[C@H](CN(C)C(=O)Nc2cccc4ccccc24)O3)cc1	-4.4
CCn1c(SCC(=O)Nc2cccc(Cl)c2)nnc1-c1ccco1	6.3
CC(C)NC(=O)Nc1cccc2c1O[C@H](CN(C)S(C)(=O)=O)[C@H](C)CN([C@H](C)CO)C2=O	-24.1
C[C@H](CO)N1C[C@H](C)[C@H](CN(C)Cc2ccc(C(=O)Nc3ccccc3N)cc2)Oc2ccc(NC(=O)Cc3cn(C)c4ccccc34)cc2CC1=O	127.0*
COc1ccccc1NC(=O)CCSc1nnc(-c2ccco2)o1	-13.6
C[C@@H]1CCCCO[C@H](CN(C)C(=O)CCCN(C)C)[C@@H](C)CN([C@H](C)CO)C(=O)c2cc(NC(=O)Nc3ccccc3)ccc2O1	-2.1
C[C@H](CO)N1C[C@H](C)[C@H](CN(C)Cc2ccc(C(F)(F)F)cc2)Oc2ccc(NC(=O)Cn3cnnn3)cc2C1=O	9.6
Cc1ccc(S(=O)(=O)Nc2ccc3c(c2)CC(=O)N([C@@H](C)CO)C[C@@H](C)[C@@H](CN(C)S(=O)(=O)c2ccc(C)cc2)O3)cc1	38.9
C[C@@H]1CN([C@@H](C)CO)C(=O)c2cc(NS(=O)(=O)c3ccc(F)cc3)ccc2O[C@@H]1CN(C)S(C)(=O)=O	5.5
O=C(CC1(O)C(=O)N(Cc2ccccc2)c2ccc(Cl)cc21)c1ccncc1 (stereo unspecified)	117.1*
C[C@H](CO)N1C[C@H](C)[C@@H](CN(C)S(=O)(=O)c2ccc(Cl)cc2)Oc2ccc(NC(=O)CCN3CCOCC3)cc2C1=O	-1.3
CCOC(=O)CN1C(=O)C2(C(C#N)=C(N)Oc3n[nH]c(C)c32)c2ccccc21 (stereo unspecified)	1.1
C[C@@H]1CN([C@H](C)CO)C(=O)Cc2cc(NS(=O)(=O)c3cccs3)ccc2O[C@H]1CN(C)S(=O)(=O)c1ccc(Cl)cc1	-11.8
CC(NC(=O)c1ccccc1NC(=O)C1COc2ccccc2O1)c1ccccc1 (stereo unspecified)	26.6
